Mtb bLac sens – beta-lactam sensitization of Mtb H37Rv; M. tuberculosis H37Rv growth with meropenem, percent inhibition; hits of this screen are not shown here; inhibition, % at 25 µM; 330,000 compounds, 0.27% hits;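 active means about 74% or more and at least 40 points above the plate without the antibiotic, then above 30% in a dose series; inconclusive means first-round hits that could not be retested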;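 further: growth measured after seven days incubation then overnight dye step; 0% = bacteria only wells and 100% = bacteria with antibiotic; twin plates without the antibiotic show which effects depend on it; some results filed as inactive read as strong as hits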
Mtb H37Rv – M. tuberculosis H37Rv growth inhibitors, H37Rv strain (AID 1626). 220,000 compounds, 0.95% hits. inhibition, % at 10 µM; hits with a dose series show IC50 in µM. M. tuberculosis H37Rv growth inhibition; higher % means a stronger effect;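 active means confirmed in a dose series; inconclusive means inhibition above 80% but not taken into the dose series; inactive means below 80% or under 30% at every dose of the series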;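 further: bacteria incubated seven days before Alamar blue readout; 0% = bacteria only wells and 100% = bacteria with antibiotic wells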
YopH inh – blocks Yersinia enterocolitica YopH tyrosine phosphatase; fluorescence Ex485/Em525; inhibition, %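 (about 10 µM by stock and volumes)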; 140,000 compounds, 0.16% hits;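 active means inhibition of 50% or more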;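 further: controls were vehicle for no effect and minimum signal wells for full effect; inactives centre near -20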
RecA splice inh – blocks M. tuberculosis RecA intein splicing | cell-free RecA intein splicing, fluorescence | inhibition, %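 (about 9 µM by stock and volumes)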 | P9WHJ3 | AID 2221 | 290,000 compounds, 0.75% hits; in the data active means inhibition above about 30%; inconclusive means no clear call, values can overlap the other calls;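 further: 0% = vehicle wells and 100% = reference inhibitor control wells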
Target sequence (P9WHJ3 whole entry, looked up, canonical isoform): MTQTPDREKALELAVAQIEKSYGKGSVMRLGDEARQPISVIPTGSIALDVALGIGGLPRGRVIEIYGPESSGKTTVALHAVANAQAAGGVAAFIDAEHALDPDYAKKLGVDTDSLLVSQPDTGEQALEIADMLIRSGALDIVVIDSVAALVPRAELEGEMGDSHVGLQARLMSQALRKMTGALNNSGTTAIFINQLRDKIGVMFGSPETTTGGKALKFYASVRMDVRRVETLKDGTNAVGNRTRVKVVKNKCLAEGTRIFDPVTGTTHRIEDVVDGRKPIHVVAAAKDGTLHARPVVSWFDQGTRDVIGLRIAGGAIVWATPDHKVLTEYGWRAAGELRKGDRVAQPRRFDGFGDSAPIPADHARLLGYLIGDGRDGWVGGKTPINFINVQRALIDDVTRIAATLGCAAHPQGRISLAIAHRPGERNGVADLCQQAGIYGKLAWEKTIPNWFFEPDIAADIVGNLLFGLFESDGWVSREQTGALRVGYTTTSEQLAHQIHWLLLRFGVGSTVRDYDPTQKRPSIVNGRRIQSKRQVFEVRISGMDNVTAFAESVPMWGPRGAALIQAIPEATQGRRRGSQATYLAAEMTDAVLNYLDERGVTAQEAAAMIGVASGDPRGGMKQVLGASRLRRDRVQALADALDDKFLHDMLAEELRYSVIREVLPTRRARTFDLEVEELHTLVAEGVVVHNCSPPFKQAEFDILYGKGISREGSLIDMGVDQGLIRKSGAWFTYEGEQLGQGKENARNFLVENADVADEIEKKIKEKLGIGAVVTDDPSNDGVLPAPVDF
Arbovirus inh – arbovirus infection inhibition | arbovirus infection cell-based antiviral screen | inhibition, % at 10 µM | 200,000 compounds, 0.37% hits;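 active means inhibition from about 30%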;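 further: bluetongue infection of BSR cells; cell survival read as ATP light after 72 h; 0% = infected wells without compound and 100% = uninfected wells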
Arbovirus inh repeat – further read-out of Arbovirus inh, marked with its call; inhibition, %; measured here: 10K subset replicate screen; many hits read low in the repeat;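 first of two repeat runs on a subset; 0% = infected and 100% = uninfected wells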
Starred values were filed as active, the others as inactive; ? = inconclusive; · = no result given. Not all compounds are listed; rates above refer to the full screens.

SMILES | Mtb bLac sens | Mtb H37Rv | YopH inh | RecA splice inh | Arbovirus inh | others
Clc1ccccc1OCCCOc1cccc2cccnc12 | 17 | · | · | 13 | ·
Cc1cc(Nc2ccccc2)n(CCOC(=O)COc2ccccc2)n1 | 14 | 2% | 4 | -3.6 | 1
CC(C)n1c(N2CCCC2)nc2c1c(=O)[nH]c(=O)n2C | 1 | · | · | -0.9 | ·
Cc1ccc(-n2c(SCc3nnc4n3CCC4)nnc2-c2ccccc2)cc1 | -1 | -6% | -38 | -0.3 | 6
Cc1cc(N2CCOCC2)ccc1/C=C1\SC(=O)N(C(C)C)C1=O | 6 | 1% | -10 | 0.9 | 3
COC(=O)C1=C(CS(=O)(=O)c2ccc(C)cc2)NC(=O)NC1c1ccc(OC)c(OC)c1 (centres undefined) | 2 | · | · | -2.0 | ·
CCCOc1ccc(S(=O)(=O)NNC(=O)c2cc3ccccc3o2)cc1 | 5 | 0% | -25 | -1.7 | -4
Cc1ccc(NC(Cc2cc(C)no2)c2ccccc2)cc1 (centres undefined) | 5 | 15% | -27 | -2.6 | 5
COc1ccc(C(=O)NCc2cnn(C)c2C)cc1OC1CCN(C(C)C)CC1 | 5 | · | · | -4.3 | ·
COCCCNC(=O)c1ccc(N2CCOCC2)c(NS(=O)(=O)c2ccc(OC)cc2)c1 | 1 | -11% | -16 | -0.1 | 1
N#Cc1c(-c2ccco2)cc(C2CC2)nc1N | -6 | 2% | 10 | -0.5 | -7
COc1ccc(NC(=O)COC(=O)CCCC2=NS(=O)(=O)c3ccccc3N2)cc1 | -5 | · | · | -1.0 | ·
N#Cc1cccc(NC(=O)C2SC(=Nc3ccccc3)C(C(=O)N3CCOCC3)=C2N)c1 (centres undefined) | 3 | 6% | -23 | 0.4 | -5
CSc1ccc(/C=C2\C(=N)N3N=C(CC(=O)N4CCCCC4)SC3=NC2=O)cc1 | 7 | · | · | 0.7 | ·
CC(C)Cn1c(N)c(C(=O)COC(=O)[C@H](C)NC(=O)c2ccccc2Cl)c(=O)n(C)c1=O | -3 | · | · | 0.5 | ·

Random excerpt: 3 entries already listed
SMILES | Mtb bLac sens | Mtb H37Rv | YopH inh | RecA splice inh | Arbovirus inh | others
Cc1ccc(-n2c(SCc3nnc4n3CCC4)nnc2-c2ccccc2)cc1 | -1 | -6% | -38 | -0.3 | 6
COC(=O)C1=C(CS(=O)(=O)c2ccc(C)cc2)NC(=O)NC1c1ccc(OC)c(OC)c1 (centres undefined) | 2 | · | · | -2.0 | ·
COc1ccc(NC(=O)COC(=O)CCCC2=NS(=O)(=O)c3ccccc3N2)cc1 | -5 | · | · | -1.0 | ·

Next section
SMILES | Mtb bLac sens | Mtb H37Rv | YopH inh | RecA splice inh | Arbovirus inh | others
COc1ccc(NC(=O)CSc2nnc3n2CCCCC3)cc1 | 19 | 12% | · | -7.8 | 0
COCCN(Cc1cc2cc(C)ccc2n2nnnc12)C(=S)Nc1cccc(C)c1 | -5 | -3% | · | -2.4 | -3
CNCCC1Sc2ccccc2Oc2ccccc21 (centres undefined) | 6 | -1% | · | 0.2 | -23
COC(CNC(=O)c1ccc(Cn2c(=S)[nH]c3cc4c(cc3c2=O)OCO4)cc1)OC | 0 | -12% | -47 | 0.6 | 17
O=C(NNS(=O)(=O)c1ccccc1F)c1cccc(S(=O)(=O)N2CCOCC2)c1 | 1 | 5% | -28 | 0.2 | 3
S=C(Nc1ccccc1)Nc1nc2ccccc2n1CCOc1ccc(Cl)cc1 | 6 | 16% | -6 | 11 | -27
CCOC(=O)c1ccc(NC(=S)N(CCCN(CC)CC)Cc2ccco2)cc1 | ? | 49% | -1 | 0.6 | -3
CCOc1ccc(-c2cc(N3C(=O)Nc4ccccc4N3O)n[nH]2)cc1 | -1 | 0% | · | 0.2 | 10
CC(C)c1ccc(NC(=O)c2cccnc2)cc1 | 1 | 19% | -50 | 1.6 | 2 | Arbovirus inh repeat=-1
Cn1ncc2c(N3CCN(c4ccccc4F)CC3)ncnc21 | 1 | 3% | -12 | 4.3 | -2
COc1ccc(OCCSc2nc3ccccc3n2CC(=O)O)cc1 | 1 | -11% | -37 | 0.0 | -4 | Arbovirus inh repeat=-5
CCC1CCc2c(sc(N)c2C(N)=O)C1 (centres undefined) | 12 | 0% | -1 | -4.5 | -16
Clc1ccc(CN2CCN(c3ccccc3)CC2)cn1 | -1 | 8% | · | -0.3 | 2
O=C(O)c1cc(S(=O)(=O)N2CCOCC2)ccc1N1CCOCC1 | -3 | 1% | -23 | 3.2 | 0
Cc1cc(-c2nnnn2-c2ccc(F)cc2)no1 | -10 | -24% | · | -1.0 | ·

At a glance, two of the compounds above.
SMILES | Mtb bLac sens | Mtb H37Rv | YopH inh | RecA splice inh | Arbovirus inh | others
O=C(O)c1cc(S(=O)(=O)N2CCOCC2)ccc1N1CCOCC1 | -3 | 1% | -23 | 3.2 | 0
Cc1cc(-c2nnnn2-c2ccc(F)cc2)no1 | -10 | -24% | · | -1.0 | ·

Later entries
SMILES | Mtb bLac sens | Mtb H37Rv | YopH inh | RecA splice inh | Arbovirus inh | others
CCCCN(C(=O)NC(=O)Nc1c(C)cc(C)cc1C)S(C)(=O)=O | 4 | 11% | -51 | -0.8 | 4
O=c1c2ccccc2nc(/C=C/c2cc(Br)ccc2O)n1CCCO | 12 | · | · | 4.7 | ·
COc1ccc(S(=O)(=O)N2CCOCC2)cc1NC(=O)COc1ccccc1 | -7 | · | · | 1.7 | ·
Cc1nc2ccc(NC(=O)c3ccc(N4C(=O)CCC4=O)cc3)cc2s1 | 0 | 4% | · | -0.3 | 4
Cc1nc(N2CCOCC2)c2c3c(sc2n1)CCC3 | 9 | -3% | · | -5.4 | -6
O=C(CCC1CCCN(C(=O)Cn2cnnn2)C1)NCc1ccc(F)c(F)c1 (centres undefined) | -3 | -4% | · | 2.0 | 2
CCOc1cc(C2C(C(=O)O)c3cc(OCC)c(OCC)cc3C(=O)N2C)ccc1O (centres undefined) | -8 | -6% | -31 | -6.3 | 28
Brc1ccccc1 | -6 | -12% | · | -3.0 | ·
O=C(Nc1nnc(C2CC2)s1)C1CC(=O)N(c2ccc3c(c2)OCCO3)C1 (centres undefined) | -2 | 0% | -22 | 1.8 | 12
CC(OC(=O)c1ccccc1CCc1ccccc1)C(N)=O (centres undefined) | 4 | · | · | -4.0 | ·
CC(C)CC(=O)NC(c1ccccc1)c1c(O)ccc2ccccc12 (centres undefined) | 4 | · | · | 0.5 | ·
Cc1cccc(C(=O)NN2C(=O)C3C(c4ccccc4)C=CC(c4ccccc4)C3C2=O)c1 (centres undefined) | -21 | -6% | -25 | 4.8 | 6
O=S1(=O)CCOC[C@H](Cc2ccccc2)N1Cc1ccccc1F | 0 | -2% | · | 1.2 | ·
CC1=CC(C2CC(=O)N(c3ccccc3C)C2=O)CC2C(=O)N(c3ccccc3C)C(=O)C12 (centres undefined) | 1 | -3% | -21 | -5.9 | 12
COc1ccc(S(=O)(=O)N2CCC(C(=O)Nc3ccccc3N3CCCC3)CC2)cc1OC | 2 | · | · | 1.7 | ·

Next section; it opens with the two that closed the last part.
SMILES | Mtb bLac sens | Mtb H37Rv | YopH inh | RecA splice inh | Arbovirus inh | others
CC1=CC(C2CC(=O)N(c3ccccc3C)C2=O)CC2C(=O)N(c3ccccc3C)C(=O)C12 (centres undefined) | 1 | -3% | -21 | -5.9 | 12
COc1ccc(S(=O)(=O)N2CCC(C(=O)Nc3ccccc3N3CCCC3)CC2)cc1OC | 2 | · | · | 1.7 | ·
COc1ccc(CNC(=S)NCc2ccc(OC(C)C)cc2)cc1 | -1 | 10% | -17 | 2.0 | -5
CCC(=O)Nc1cccc(-n2nnnc2SCC(=O)c2ccc(C)c(C)c2)c1 | 10 | 30% | -25 | 0.8 | 3
COc1ccc(/C=C2\SC(=S)N(CCC(=O)Nc3ccc(C(=O)O)cc3)C2=O)cc1 | -1 | · | · | 19 | ·
COc1ccc(CC(=O)N2CC(C)CC(C)C2)cc1 (centres undefined) | 9 | -3% | -26 | 0.1 | -4
CS(=O)(=O)c1ccccc1-c1nnc(NC(=O)C2=COCCO2)o1 | -12 | · | · | 4.0 | ·
O=C(COc1ccccc1C(=O)NCc1ccccn1)Nc1ccc(Br)cc1 | -7 | 1% | · | 1.0 | 18
CCNC(=S)N(CCCN(C)C)Cc1cc2cc3c(cc2[nH]c1=O)OCCO3 | 1 | · | · | -4.3 | ·
NC(=O)CC(NC(=O)c1ccccc1)c1ccc(NCC2CC2)c([N+](=O)[O-])c1 (centres undefined) | -1 | -1% | · | 2.1 | ·
Cc1cc(C)c2c(NC(=S)Nc3ccccc3)n[nH]c2n1 | -3 | -4% | · | 3.3 | 4
CC(O)CNc1nc2ccccc2n1CC(=O)NCC(F)(F)F (centres undefined) | -3 | -13% | · | 0.1 | 9
COc1ccc(C2CC2C(C)=O)cc1 (centres undefined) | -6 | 6% | · | 2.2 | 6
CC(=O)Nc1ccccc1OCC(=O)c1ccc2c(c1)OCO2 | 2 | -8% | -35 | 2.4 | -4
CC(C)C(=O)Nc1cccc(NC(=O)c2cc3ccccc3o2)c1 | 4 | 5% | -31 | -0.5 | -8
CNC(=O)c1c(NC(=O)c2cc(-c3cc(C)c(C)cc3O)n[nH]2)sc2c1CCCC2 | 6 | 5% | · | -2.3 | ·
CC(NC(=O)c1noc2c1CCCC2)c1ccccc1 (centres undefined) | · | 15% | -9 | -0.8 | -4
COc1ccc(NC(=O)CN(CC(=O)Nc2ccc(OC)cc2)C(C)(C)CO)cc1 | 96 | · | · | -1.7 | ·
COc1ccc(C(=O)C2CCCN(Cc3ccc(C#CCCO)cc3)C2)c(OC)c1 (centres undefined) | -5 | -3% | · | 0.5 | -8
CCCCN1C(=O)/C(=C/C=C2/CC(C)(C)CN2C)SC1=S | -6 | 2% | -17 | -1.9 | -12
CCCS(=O)(=O)C/C(N)=N/OC(=O)c1ccc(Cl)cc1 | 0 | -7% | · | -2.5 | ·
O=[N+]([O-])c1ccc(O)c(/C=N/Nc2ccc(Cl)nn2)c1 | 13 | 36% | -27 | · | -17
COC(=O)c1ccc(-c2nc(O)c3cnccn23)cc1 | 8 | -16% | -46 | -54 | -5
CC(C)Oc1ccc(C(=O)Nc2ccc(N3CCCCC3)cc2)cc1 | 17 | -5% | -26 | 1.9 | 6
CC(=O)NC(CCS(C)(=O)=O)C(=O)Nc1ccc(Cl)c(Cl)c1 (centres undefined) | -2 | -3% | -30 | -0.1 | 0 | Arbovirus inh repeat=0
Cc1ccc2sc(N(CCCN(C)C)C(=O)c3ccc(Br)s3)nc2c1C | 6 | 0% | · | 6.1 | -29
O=[N+]([O-])c1cccc(S(=O)(=O)Nc2ccc(S(=O)(=O)Nc3nccs3)cc2)c1 | -9 | · | · | 0.8 | ·
COc1ccccc1NC(=O)C(=O)NCC(c1ccco1)N1CCc2ccccc2C1 (centres undefined) | -4 | · | · | 3.7 | ·
O=C(CN(Cc1ccc(F)cc1)C(=O)CCC(=O)Nc1ccccn1)NCc1ccco1 | -3 | 4% | -21 | 1.8 | 3
CCc1ccccc1NC(=O)CC1S/C(=N\c2nccs2)N(CC)C1=O (centres undefined) | 0 | 5% | -36 | -0.3 | -5
Cc1ccc(/C=N/n2nnnc2N)cc1[N+](=O)[O-] | 1 | -11% | -28 | -0.9 | 3
O=C(COC(=O)/C=C/c1ccc(Cl)cc1)Nc1ccccc1 | 84 | 80% | · | 3.2 | 4
O=C(CCC1CCCC1)N1CCC(N2CCCCCC2)CC1 | 10 | -4% | -16 | -1.0 | -20
Cc1ccccc1NC1=C/C(=N\S(=O)(=O)c2cccs2)c2ccccc2C1=O | 94 | 61% | -18 | 37* | -45
COC(=O)[C@@H](Cc1ccccc1)NC(=O)NCCc1ccccc1 | -2 | · | · | -0.1 | ·
CCOC(=O)N1CCN(C(=O)CSCc2ccccc2C)CC1 | -3 | -1% | -34 | -2.2 | 6
Cc1cc(OCCCCCNCCO)ccc1Cl | -14 | 3% | -11 | -2.1 | -8 | Arbovirus inh repeat=-6
CNNCc1ccc(C(=O)NC(C)C)cc1 | -2 | 8% | · | 2.8 | ·
Cc1cc(=O)n2nc(N3CCC(C(=O)NCc4ccc(Cl)cc4)CC3)sc2n1 | 3 | · | · | -5.6 | ·
Cc1ccc(CS(=O)Cc2ccc(C(=O)NC3CCCCCC3)o2)cc1 (centres undefined) | -8 | · | · | -0.3 | ·
CCN(CC)CCNC(=O)Cn1cnc2sc(C)c(S(=O)(=O)N3CCOCC3)c2c1=O | -9 | -4% | -1 | -1.1 | 4 | Arbovirus inh repeat=-1
O=C(CSc1nnc(CSc2nc3ccccc3s2)o1)NC1CCCCC1 | 47 | 6% | -15 | 1.4 | -1
CCOC(=O)N1CCN(c2c(N3CCC(N4CCCCC4)CC3)c(=O)c2=O)CC1 | -2 | 5% | -8 | -0.9 | -3
CCn1c(/C=C\c2ccccc2C)nc2ccccc2c1=O | 8 | 3% | · | · | 10
O=C(O)COc1ccccc1/C=N/NC(=O)CNC(=O)c1ccc(F)cc1 | -4 | 6% | · | -2.8 | ·
